# Screens: PubChem BioAssay, National Center for Advancing Translational Sciences (NCATS)
# Rango dissoc inh: inhibitors of RanGTP-induced Rango-importin beta complex dissociation. Biochemical FRET Rango-importin beta, RanGTP-induced dissociation. Potency, µM (top dose mostly 46.1 µM), without a hit: top-dose activity change, negative = inhibition. 0.071% of 340,000 active; active means falling FRET ratio curve, often poorly fitted, with flat reads before Ran was added; inconclusive means other falling curves, or compound fluorescence or quenching; inactive means flat or rising ratio curve;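 note: potency is the fitted concentration of half-maximal effect; % of control where 0% means no effect; nearly all actives have a fitted effect of over 45% in size; -100% = wells without RanGTP and RCC1; the record marks most hits as doubtful in a second field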
#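 Compounds sat 5 min at room temperature with 0.1 uM Rango biosensor plus 0.25 uM importin beta, then FRET pre-read. RanGTP-RCC1 (0.6 uM Ran, 2mM GTP, 0.2 uM RCC1) added for 45 min, and the CFP/YFP post-read measured blocked complex dissociation.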
# GLA inh pH 4.5: blocks human alpha-galactosidase A at pH 4.5. activity change, negative = inhibition, % at 105 µM. P06280. purified enzyme, 4-MU-alpha-Gal fluorescence, pH 4.5. AID 1467. 230,000 tested, under 10 active; inconclusive = small, poorly fitted or top-dose-only inhibition, or a rising curve; inactive = flat fitted curve, though single readings scatter; no compound was filed as active;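 note: 0% = full activity with enzyme and -100% = basal without enzyme; dose as in the result columns while the protocol names 77 µM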
# Target sequence (P06280 whole entry, looked up): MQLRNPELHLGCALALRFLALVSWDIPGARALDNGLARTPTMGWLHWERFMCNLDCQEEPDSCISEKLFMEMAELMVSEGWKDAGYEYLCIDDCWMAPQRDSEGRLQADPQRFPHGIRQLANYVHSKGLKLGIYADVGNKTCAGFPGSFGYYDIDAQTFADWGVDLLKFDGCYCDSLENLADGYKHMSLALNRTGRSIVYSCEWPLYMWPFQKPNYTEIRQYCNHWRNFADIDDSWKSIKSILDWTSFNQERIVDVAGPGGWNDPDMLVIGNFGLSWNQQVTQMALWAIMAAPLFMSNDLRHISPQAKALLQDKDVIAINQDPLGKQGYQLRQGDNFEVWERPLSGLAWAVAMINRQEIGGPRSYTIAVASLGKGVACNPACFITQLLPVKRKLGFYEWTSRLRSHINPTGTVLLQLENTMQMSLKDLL
# miR-21 FLuc: raises the signal of a miR-21 reporter; AID 2288; Potency, µM (highest dose often 38.3 µM), for the others: at the top dose reporter change, positive = more light; HeLa miR-21 FLuc reporter, luciferase, 48 h; 340,000 tested, under 10 active; active = well fitted rising curve with a large enough effect; inconclusive = small, poorly fitted or top-dose-only effect; inactive = no such curve, though single readings can be large or run the other way;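 note: % of control where 0% means no effect; miR-21 action dims this reporter so a rising signal means less miR-21 action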
#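 Luminescence from a firefly luciferase reporter carrying a miR-21 binding site downstream, stably expressed under a CMV promoter in HeLa cells that make miR-21 endogenously, reports miRNA modulation after 48 h compound exposure up to approximately 40uM final.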
# Rango complex inh: Rango-importin beta binding inhibition | Q14974 | Rango CFP/YFP FRET sensor + importin beta, 45 min | Potency, µM (titrated, usually from 92.2 µM), for inactives: at the highest dose inhibition of complex formation | 0.031% of 340,000 active; active = rising FRET ratio curve, often small or poorly fitted; inconclusive = mostly compound fluorescence or quenching in the first reads; inactive = flat curves in all reads;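 note: potency is the fitted concentration of half-maximal effect; 0% = DMSO wells and 100% = buffer wells lacking importin beta; nearly all actives have a fitted effect of over 15% in size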
#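 FRET biosensor (snurportin 1 IBB flanked by EYFP and cerulean), 50 nM, with compound 5 min, then 0.125 microM importin beta in PBS, 1 mM DTT, 0.02% Tween-20, 0.1% BSA. CFP/YFP ratio read after 45 min at room temperature; pre-read flags interference.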
# Numbers without * were called inactive; ? = inconclusive; . = not tested or not shown; & = joins results of further samples. The list is partial. The share of hits here may be higher or lower than overall.
SMILES,Rango dissoc inh,GLA inh pH 4.5,miR-21 FLuc,Rango complex inh
Cc1ccc(C(=O)N2CCC(C)CC2)cc1NC1=NC2CS(=O)(=O)CC2S1 (stereo not drawn),13%,.,-1%,1.7%
Cc1ccc(CS(=O)(=O)c2ncc(Cl)c(C(=O)Nc3ccc(OC(F)F)cc3)n2)cc1,5%,.,?,0.3%
COc1ccc(OC2OC3COC(C)(C)OC3C(O)C2NC(C)=O)cc1 (stereo not drawn),-9%,3,-2%,-0.5%
CN(C)CC(c1ccccc1)c1ccccc1,-6%,4,0%,4.7%
O=C(c1cc2c(s1)CCCC2)n1cccn1,15%,-26,-4%,-1.6%
CCNC(=O)CC1C(=O)N(c2ccc(OC)cc2)C(=O)N1CCOC (stereo not drawn),11%,.,0%,2.1%
CCN1CCN(CCCNC(=O)c2ccc3c(c2)NC(=O)c2ccccc2S3)CC1,11%,0,-4%,3.3%
COc1ccc(OC)c(NC(=O)c2ccccc2NC(=O)c2ccco2)c1,-8%,-26,6%,0.9%
CSCCC(C(=O)Nc1ccc2c(c1)OCO2)N1C(=O)c2ccccc2C1=O (stereo not drawn),27%,-6,-9%,5.8%
Cc1cccc(C)c1NC(=O)CCS(=O)(=O)c1cccc2nonc12,3%,.,-1%&5%,-0.5%
Clc1ccccc1OCc1nn2c(-c3ccncc3)nnc2s1,2%,4,-9%,1.0%
Cc1cccc2c1cnn2C(=O)CCC(=O)NC1CCCCC1,-20%,.,-9%,5.4%
CC(C)(C)c1ccc(C(=O)Oc2ccc3c(c2)OCC3=O)cc1,6%,9,-5%,-2.3%
COc1ccc(OC)c(-n2c(-c3ccn[nH]3)n[nH]c2=S)c1,14%,5,-1%,-0.2%
CCCS(=O)(=O)N1CCC(C(=O)N2CCN(Cc3ccccc3)CC2)CC1,35%,0,-4%,5.6%
COc1ccc(-n2cnnc2SCC(=O)Nc2cccc(S(=O)(=O)N3CCCCC3)c2)cc1,8%,-6,-6%,-0.5%
CCOC(=O)/C(=C\Nc1ccccc1C(F)(F)F)Sc1ncc(C(F)(F)F)cc1Cl,-5%,0,6%,-3.4%
COc1ccc2c(C)cc(SC3CCOC3=O)nc2c1 (stereo not drawn),-18%,6,-3%,3.0%
CCCC/C=C1/CCC(CN(C)C)C1=O (stereo not drawn),-5%,.,.,1.4%
CS(=O)(=O)c1ccc2nc(NC(=O)C3=NN(c4ccccc4)C(=O)CC3)sc2c1,-11%,-1,0%,0.7%
Cc1oc(-c2ccc(Cl)cc2)nc1CS(=O)CC(=O)NCCN1CCCCCC1 (stereo not drawn),-11%,.,-6%,5.6%
COc1ccc(NC(=O)Nc2cccc3c2O[C@H](CN(C)C(=O)NC(C)C)[C@@H](C)CN([C@H](C)CO)C3=O)cc1,?,.,.,-4.5%
CC(=O)N1CCc2cc(S(=O)(=O)N3CCc4ccccc4C3)ccc21,-2%,4,3%,0.1%
Cc1cc(O)c(C(=O)/C=C/c2ccccc2)c(=O)o1,?,.,-18%,?
O=C(NC1CCN(S(=O)(=O)c2ccccc2)CC1)c1ccccc1,-18%,.,-2%,3.0%
C/C(N)=C(/C#N)C(=O)COC(=O)C1Cc2ccccc2CN1S(C)(=O)=O (stereo not drawn),2%&0%,-6,-11%,5.3%&0.8%
O=C(O)CNS(=O)(=O)c1cc(Cl)c(Cl)cc1Cl,-1%,-1,0%,3.2%
O=C(CO/N=C/c1ccccc1OC(F)F)NCc1ccco1,4%,3,-3%,1.3%
COC(Cn1c(-c2cccc(S(=O)(=O)N(C)C)c2)n[nH]c1=S)OC,-6%,-4,-5%,0.7%
O=C(NN1C(=O)C2CC=C(Cl)CC2C1=O)c1ccncc1 (stereo not drawn),2%,5,0%,-3.4%
CCOC(=O)c1c(NC(=O)N/N=C/c2ccccc2OCC)sc(C(C)=O)c1C,-8%,6,-6%,0.0%
Cc1cc(NC(=O)c2cc(CC(C)C)on2)no1,24%,5,-22%,4.4%
Cc1cccc(NC(=O)c2ccc(C)c(S(=O)(=O)N3CCCCC3)c2)n1,-5%,.,.,-4.6%
CCN(c1cccc(C)c1)S(=O)(=O)c1ccc2c(c1)N(C(C)=O)CCS2,5%,.,-1%,-0.9%
COc1ccc(-c2ccc3oc(-c4ccc(OC)cc4)c(C#CCO)c3c2)cc1,18%,.,.,-3.2%
Cc1c(Cl)cccc1NS(=O)(=O)c1cccc2nsnc12,3%,.,-12%,0.1%
Cc1nc2ccccc2c(=O)n1/N=C/c1ccc([N+](=O)[O-])o1,.,-5,?,.
CSc1nc(-c2ccccc2)nn1S(=O)(=O)c1ccc(Cl)cc1,-6%,8,-12%,5.9%
Oc1ccc(Cl)cc1CNCc1ccc(Cl)cc1,38%,.,.,-1.1%
CCCN(C(=O)CSCc1c(C)noc1C)c1c(N)n(Cc2ccccc2)c(=O)[nH]c1=O,-2%,.,.,?
CCN1C(=NCC2CC2)N[C@@H](c2cccc(C(F)(F)F)c2)C(C(=O)OC)=C1C,-14%,.,-3%&16%,-0.6%
O=C(CN1C(=O)NC2(CCCCCCC2)C1=O)Nc1cccc(Br)c1,-4%,.,.,4.3%
COc1ccc(C2NC(=O)N(C)C3=C2C(=O)CC(C)(C)C3)cc1OC (stereo not drawn),1%,6,-1%,-0.7%
CCOCCCNS(=O)(=O)c1ccc2c(c1)CCN2C(C)=O,2%,0,-2%,-2.4%
O=C(NC(=S)Nc1ccccn1)c1ccccc1,8%,2,-26%,1.0%
Cn1cccc1/C=C1\SC(=S)N(NC(=O)c2cccc(Cl)c2)C1=O,?,-6,0%,?
C=CC[C@H](CC(=O)N(CCO)Cc1ccccc1)C(=O)NCCOC(=O)[C@H](CC=C)CC(=O)OC(C)(C)C,-5%,.,.,2.9%
Cc1ccc(S(C)(=O)=N/C=C2\C(=O)c3sccc3N(C)S2(=O)=O)cc1 (stereo not drawn),-9%,3,1%,-1.9%
Nc1nonc1-c1nc2ccccc2n1CC(=O)O,-6%,8,-2%,1.5%
O=C(Cc1ccccc1F)NCC(c1ccco1)N1CCCCC1 (stereo not drawn),-4%,1,-3%,-0.4%
C/C=C/C=C/C(=O)N1CC2(CC(c3cccc(NC(=O)/C=C/C)c3)=NO2)C[C@@H]1C(N)=O (stereo partly drawn),-10%,-1,3%,-3.8%
CCOC(=O)/C(N)=C/c1ncc(C(F)(F)F)cc1Cl,0%,0,-11%,-0.9%
Cc1cccc(-n2ncc3c(N(C)C4CCCCC4)ncnc32)c1,19%,-4,-31%,-2.4%
CCCCC(=O)Nc1ccc(C(=O)NNC(=O)CCCOc2ccc(Cl)cc2Cl)cc1,15%,5,-5%,-1.5%
COc1cccc(C(=O)NC2CCN(CC(=O)Nc3ccccc3Cl)CC2)c1,1%,.,-6%,-3.2%
NC(=O)c1c(NC(=O)c2ccccc2)sc2c1CCCC2,-7%,.,-46%,-3.2%
Cc1cc(C(F)(F)F)c2c(N)c(C(=O)NC3CC3)sc2n1,-10%,.,-6%,?
CSCCC(NC(=O)c1ccc([N+](=O)[O-])cc1Cl)C(=O)OC1CCCCC1=O (stereo not drawn),9%,.,3%,-3.9%
O=C(CCc1ccc(S(=O)(=O)N2CCOCC2)cc1)OCC(=O)c1ccc(Br)cc1,4%,.,.,1.9%
COc1ccc(NC(=O)C(=O)NCCCn2ccnc2)cc1,1%,-6,-2%,0.4%
# Following part
SMILES,Rango dissoc inh,GLA inh pH 4.5,miR-21 FLuc,Rango complex inh
CCN(CC(=O)Nc1c(F)cccc1F)C(=O)c1csc2c1CCCC2,-4%,.,.,-0.7%
Nn1c(SCC(=O)Nc2nccs2)nnc1-c1ccco1,0%,.,.,0.2%
Cc1ccc(NC(=O)CN2CCCC2c2cccs2)cc1S(=O)(=O)N1CCCCC1 (stereo not drawn),14%,.,.,1.0%
Cc1cc(C(=O)N2CC(C)CC(C)C2)n(-c2ccccc2)n1 (stereo not drawn),-8%,6,-1%,-2.1%
CCc1ccc(CCC(=O)Nc2sc3c(c2C#N)CCCC3)o1,-22%,-5,17%,?
O=C(N/N=C/c1ccc(F)cc1)c1cccc(NC(=O)c2ccccc2Cl)c1,0%,.,-5%,3.5%
CCn1c(NC)cc(=O)n(C)c1=O,?,1,3%,?
Cc1cc(NS(=O)(=O)c2ccc3c(c2)OCCO3)no1,-3%,-9,0%,1.0%
CCCc1cc(=O)oc2cc(OC(C)C(=O)NCCCn3ccnc3)ccc12 (stereo not drawn),13%,.,-3%,3.0%
O=C(CSc1nnc(NC(=O)Cc2ccccc2)s1)NCc1ccco1,13%,-5,4%,-3.9%
CCCCN(CCCNC(=O)c1ccc(CS(=O)(=O)c2c(Cl)cccc2Cl)o1)Cc1ccccc1,9%,.,6%,-0.1%
CCCCn1c(N)c(N(CCC(C)C)C(=O)c2ccccc2C)c(=O)[nH]c1=O,1%,.,-1%,1.2%

# Ordered by the number under Rango complex inh (rising): some entries from above
SMILES,Rango dissoc inh,GLA inh pH 4.5,miR-21 FLuc,Rango complex inh
O=C(CSc1nnc(NC(=O)Cc2ccccc2)s1)NCc1ccco1,13%,-5,4%,-3.9%
COc1ccc(-c2ccc3oc(-c4ccc(OC)cc4)c(C#CCO)c3c2)cc1,18%,.,.,-3.2%
Cc1cc(C(=O)N2CC(C)CC(C)C2)n(-c2ccccc2)n1 (stereo not drawn),-8%,6,-1%,-2.1%
CCN1C(=NCC2CC2)N[C@@H](c2cccc(C(F)(F)F)c2)C(C(=O)OC)=C1C,-14%,.,-3%&16%,-0.6%
Cc1cccc(C)c1NC(=O)CCS(=O)(=O)c1cccc2nonc12,3%,.,-1%&5%,-0.5%
Cc1ccc(NC(=O)CN2CCCC2c2cccs2)cc1S(=O)(=O)N1CCCCC1 (stereo not drawn),14%,.,.,1.0%

# The results go on.
SMILES,Rango dissoc inh,GLA inh pH 4.5,miR-21 FLuc,Rango complex inh
O=C(CSc1nnc(Nc2ccccc2F)s1)NCc1ccco1,-9%,0,-8%,-0.4%
Cc1cccc(C(=O)c2ccccc2C(=O)O)c1,-2%,5,-1%,-1.4%
O=c1ccc(-c2n[nH]c(=S)n2-c2ccc(F)c(Cl)c2)n[nH]1,1%,-18,-1%,1.0%
Cc1cc(C)c(S(=O)(=O)NCCCN2CCOCC2)cc1Br,-4%,-4,-8%,2.6%
CC1(C)C2CCC1(CS(=O)(=O)NCc1ccc(S(N)(=O)=O)cc1)C(=O)C2 (stereo not drawn),1%,.,0%,2.3%
O=Nc1[nH]c(=O)c(/C=C(\O)c2ccccc2)nc1NO,-13%,.,-47%,0.4%
COc1ccc(NC(=O)/C=C/c2ccc(F)cc2)cn1,7%,2,-47%,1.0%
CCOc1ccc(C(=O)Nc2ccc3c(c2)OCCO3)cc1,17%,.,-8%,1.4%
COc1cc(C(=O)Nc2cccc(-c3nc4cc(C)ccc4o3)c2C)cc(OC)c1OC,-4%,2,-11%,0.6%
O=C(OCC(=O)N1CCOCC1)c1cc(S(=O)(=O)N2CCOCC2)c(Cl)cc1Cl,16%,.,.,-5.4%
O=C(Nc1cc(Cl)ccc1N1CCOCC1)C1=COCCO1,-13%,.,.,-1.2%
CC1CCCCC1NC(=O)CN1CCC(NC(=O)c2cccc(F)c2)CC1 (stereo not drawn),1%,.,-2%,0.0%
Cc1[nH]c2ccccc2c1/C=N/NC(=O)CNC(=O)c1ccccc1,1%,2,4%,-3.0%
CCCCN1C(N)=NC[C@H]1Cc1ccc(O)cc1,5%,1,9%,4.5%
Cc1ccc(NC(=O)C2CCN(S(=O)(=O)c3cccnc3)CC2)cc1C,-9%,.,-1%,2.3%
Cc1ccccc1S(=O)(=O)c1c(C)cc(-c2ccccc2)[nH]c1=O,9%,1,0%,4.9%
O=C(CN1CCN(C2CCCCC2)CC1)Nc1ccc(Br)cc1,-5%,-3,-5%,1.1%
COc1ccccc1C(CNC(=O)CSc1ccc2ccccc2c1)N(C)C (stereo not drawn),-3%,.,-1%,3.0%
CCC/C=N/Nc1nnc(Cc2ccccc2)c(=O)[nH]1,4%,.,-3%,4.3%
CC(C)(C)CC(=O)Nc1cc2c3c(c1)CCN3C(=O)CC2,7%,.,-3%,-1.0%
